High-throughput results (PubChem)
AF4-AF9 inh = MLL-AF4/AF9 protein interaction inhibition | P42568 | AlphaScreen, biotin-AF4 peptide binding to FLAG-AF9 | inhibition, % at 10 µM | 350,000 tested, 0.47% active | AID 651704;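 active means every replicate reaching a set inhibition limit, whatever the replicate mean, cut at about 25% in these data; inconclusive means mean inhibition reaches that limit but some replicates miss it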;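 further: 0% = plate neutral control median and 100% = total signal loss; the record names both 10 and 1 µM as test concentration; the first replicate is given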
T cruzi inh = T. cruzi replication inhibition; T. cruzi beta-gal in NIH3T3, luminescence, 90 h; inhibition, % (concentration not given with the values); 300,000 tested, 1.4% active; AID 1885;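 active means mean inhibition across valid replicates above about 55%, limit read from the data; inconclusive means mean below that limit but half or more replicates reach it; inactive means mean below it, under half of replicates reach it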;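 further: signal also drops with host cell toxicity which is not excluded here; 0% = plate median of DMSO wells and 100% = zero luminescence signal; higher percent means less beta-gal luminescence so fewer parasites; stock transfer was 50 nL into about 50 µL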
Vif TR-FRET = inhibitors of Vif binding to APOBEC3G peptide, primary screen, biochemical, TR-FRET, GST-Vif 1-94, biotin-A3G peptide, dose response retest (AID 1117319) | TR-FRET GST-Vif / biotin-A3G peptide binding; higher % means a stronger effect; test concentration not given here; strong numbers were not always called active | one-dose inhibition, %; IC50 in µM for titrated hits | 260,000 tested, 0.57% active;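 active means above the screen mean plus three standard deviations and confirmed in dose response; inconclusive means results disagree or hit not tested in dose response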;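 further: Vif residues 1-94 fused to GST binding biotinylated APOBEC3G peptide 110-148; 0% = full assay without inhibitor and 100% = GST in place of GST-Vif; retest series ran down from 100 µM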
RanGTP-Imp inh = inhibitors of RanGTP-importin-beta interaction, primary screen, biochemical, FRET, CFP-Ran, YFP-importin-beta, homogeneous | cell-free CFP-Ran/YFP-importin-beta FRET ratio | inhibition, % (concentration not given with the values) | 300,000 tested, 1.1% active | AID 2216;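 active means most replicates above 15%; inconclusive means exactly half above 15%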;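 further: 0% = DMSO wells and 100% = Ran loaded with GDP instead of GTP; wells of about 40 µL received 100 nL stock; the first replicate is given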
Bfl-1 A1 inh = inhibitors of the anti-apoptotic protein A1, read as caspase activation; 330,000 tested, 0.066% active; caspase activation, % (concentration not given with the values); MEF A1-2A-BIM cells, Caspase-Glo 3/7 luminescence, 3 h; percent of clofoctol response, vehicle zero; AID 2462;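 active means over half of replicate activation scores above 10%, or exactly half above 10 with the replicate mean above 10; inconclusive means replicate mean below 10 yet half the replicates above 10; inactive means over half of replicates below 10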;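 further: wells of about 30 µL received 50 nL stock; many hits fall short of the cut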
LANA-H2B inh = blocks KSHV LANA binding to histone H2A/H2B. Q9QR71. cell-free LANA-H2A/H2B peptide, fluorescence polarization. inhibition, % (test concentration not listed). 320,000 tested, 0.6% active; in the data active means inhibition mostly above about 10%, no sharp cut-off; inactive means mostly below about 6.7%;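 further: stock transfer was 7.5 nL into about 10 µL; 0% = median of vehicle wells and 100% = median of positive control wells; one replicate is shown; the record names a cut of 25% in any replicate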
Target sequence (Q9QR71 whole entry, looked up): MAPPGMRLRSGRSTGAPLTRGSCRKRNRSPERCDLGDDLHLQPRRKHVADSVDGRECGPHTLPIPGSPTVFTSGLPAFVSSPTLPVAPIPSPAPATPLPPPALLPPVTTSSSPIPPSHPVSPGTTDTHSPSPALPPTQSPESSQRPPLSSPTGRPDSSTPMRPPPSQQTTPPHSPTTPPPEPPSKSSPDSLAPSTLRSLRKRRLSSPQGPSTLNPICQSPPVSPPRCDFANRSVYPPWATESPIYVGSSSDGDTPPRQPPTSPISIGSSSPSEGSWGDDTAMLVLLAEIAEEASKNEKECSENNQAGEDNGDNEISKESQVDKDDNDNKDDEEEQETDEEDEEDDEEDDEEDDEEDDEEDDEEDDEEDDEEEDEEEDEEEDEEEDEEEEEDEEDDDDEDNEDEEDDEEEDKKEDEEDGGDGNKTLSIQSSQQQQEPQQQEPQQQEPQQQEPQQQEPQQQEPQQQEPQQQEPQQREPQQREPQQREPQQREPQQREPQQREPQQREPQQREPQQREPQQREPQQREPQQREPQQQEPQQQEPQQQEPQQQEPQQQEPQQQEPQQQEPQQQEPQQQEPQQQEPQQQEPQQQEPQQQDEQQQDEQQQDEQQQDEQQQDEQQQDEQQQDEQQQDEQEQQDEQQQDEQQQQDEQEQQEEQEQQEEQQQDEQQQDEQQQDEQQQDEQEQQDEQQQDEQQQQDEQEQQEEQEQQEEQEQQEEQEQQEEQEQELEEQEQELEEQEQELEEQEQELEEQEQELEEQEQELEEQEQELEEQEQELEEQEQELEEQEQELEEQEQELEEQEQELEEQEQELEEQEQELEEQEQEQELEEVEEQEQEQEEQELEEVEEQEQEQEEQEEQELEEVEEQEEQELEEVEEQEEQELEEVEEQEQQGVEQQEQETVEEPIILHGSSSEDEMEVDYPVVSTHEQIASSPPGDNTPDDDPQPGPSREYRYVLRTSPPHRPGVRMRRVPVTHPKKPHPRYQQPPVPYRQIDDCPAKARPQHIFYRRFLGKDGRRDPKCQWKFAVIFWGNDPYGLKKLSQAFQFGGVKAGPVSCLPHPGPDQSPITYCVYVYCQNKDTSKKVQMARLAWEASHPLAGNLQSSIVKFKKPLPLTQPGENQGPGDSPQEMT
Beta apoptosis = beta cell apoptosis inhibition; protection from apoptosis, % (no concentration beside the values); INS-1E cytokine-induced death, ATP luminescence, 48 h; percent of positive-control rescue, neutral wells zero; 300,000 tested, 0.8% active;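 active means all replicates at 75% or more, or half of them and the mean; inconclusive means half reach 75% but not the mean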;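 further: 0% = cytokine-treated negative control wells and 100% = positive control rescue; higher means more ATP so stronger rescue from cytokine killing; wells of about 40 µL received 100 nL stock; the first replicate is given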
Calb FLC = C. albicans growth modulation with fluconazole; C. albicans CaCi-2 (fluconazole-resistant clinical isolate) + fluconazole, Alamar Blue growth, 48 h; growth inhibition, % (concentration not given with the values); 300,000 tested, 0.57% active;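 active means most replicates above 75%; inconclusive means exactly half above 75%; inactive means most below 75%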;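 further: all wells also contain fluconazole at 8 µg/ml as a sub-toxic cotreatment; 0% = median of DMSO wells and 100% = median of geldanamycin control wells; wells of about 8 µL received 7.5 nL stock; the first replicate is given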
Starred values were filed as active, the others as inactive. Rows were taken by chance. About 4.3% of those tested had a hit in this group.

Results for CC(C)(C)N(Cc1ccccc1)C(=O)CN1C(=O)NC2(CCCCCC2)C1=O ?
AF4-AF9 inh: 0.1; Vif TR-FRET: 3%; Bfl-1 A1 inh: 0.5; LANA-H2B inh: 0.1; Beta apoptosis: -7

How did Cn1c(C(C#N)C(=O)Cc2cccc3ccccc23)nc2ccccc21 (stereo not drawn) do in these assays?
T cruzi inh: 7; Vif TR-FRET: -3%; RanGTP-Imp inh: 1.2; Bfl-1 A1 inh: 0.5; LANA-H2B inh: 1.3; Beta apoptosis: 7; Calb FLC: 1

Results for O=C(/C=C/c1ccccc1)NC(=O)c1ccccc1O ?
AF4-AF9 inh: 2.2; T cruzi inh: -22; RanGTP-Imp inh: 0.5; Bfl-1 A1 inh: -5.1; LANA-H2B inh: 8.6; Beta apoptosis: -8; Calb FLC: -3

What do the screens show for `CC(C)N(Cc1ccccc1)C(=O)COC(=O)c1cc[n+]([O-])cc1`?
AF4-AF9 inh: -3.5; Bfl-1 A1 inh: 0.9; LANA-H2B inh: 0.5; Beta apoptosis: -5

How did CCOC(=O)c1ccccc1NC(=O)c1ccc2nc[nH]c2c1 do in these assays?
AF4-AF9 inh: 0.7; T cruzi inh: 37; Vif TR-FRET: -5%; RanGTP-Imp inh: 2.6; Bfl-1 A1 inh: -0.1; LANA-H2B inh: -9.9; Beta apoptosis: -1; Calb FLC: 13

Results for O=C(NCCc1cccs1)c1ccc(Cl)c(Cl)c1 ?
AF4-AF9 inh: -2.9; T cruzi inh: -1; Vif TR-FRET: 14%; RanGTP-Imp inh: -2.1; Bfl-1 A1 inh: 0.3; LANA-H2B inh: 0.5; Beta apoptosis: 8; Calb FLC: 16

What do the screens show for `COc1ccc(CCNC(=O)c2cc(=O)n(C)c(=O)n2C)cc1OC`?
AF4-AF9 inh: -3.7; T cruzi inh: -20; RanGTP-Imp inh: -1.1; Bfl-1 A1 inh: -0.5; LANA-H2B inh: -3.6; Beta apoptosis: -1; Calb FLC: -6

What do the screens show for `COc1ccc(NS(=O)(=O)c2cccc(NC(=O)c3cnccn3)c2)cc1Br`?
AF4-AF9 inh: -1.3; T cruzi inh: 68*; Vif TR-FRET: 25%; RanGTP-Imp inh: -3.0; Bfl-1 A1 inh: 0.0; LANA-H2B inh: -2.1; Calb FLC: 8

Results for COc1cccc(/C=N/Nc2ncnc3scc(-c4ccccc4)c23)c1OC ?
AF4-AF9 inh: 16; T cruzi inh: 40; Vif TR-FRET: -5%; RanGTP-Imp inh: -5.0; Bfl-1 A1 inh: 0.1; LANA-H2B inh: 3.2; Beta apoptosis: 11; Calb FLC: 8

Results for Cc1cc(NC(=O)c2ccco2)no1 ?
T cruzi inh: -11; Vif TR-FRET: 0%; RanGTP-Imp inh: -0.5; Bfl-1 A1 inh: 0.4; LANA-H2B inh: 4.0; Beta apoptosis: 5; Calb FLC: 3

How did CC(C)NC(=O)c1sc(=S)n2c1[nH]c(=O)c1ccc(C(=O)NCCc3ccc(Cl)cc3)cc12 do in these assays?
AF4-AF9 inh: 4.0; T cruzi inh: -3; RanGTP-Imp inh: 6.9; Bfl-1 A1 inh: 0.5; LANA-H2B inh: -2.7; Beta apoptosis: 8; Calb FLC: -8

What do the screens show for `CC(=O)C(C)Oc1ccc(Cc2ncc(C(F)(F)F)cc2Cl)cc1` (stereo not drawn)?
AF4-AF9 inh: -1.2; T cruzi inh: -11; Vif TR-FRET: 6%; RanGTP-Imp inh: -1.2; Bfl-1 A1 inh: 0.6; LANA-H2B inh: -0.1; Beta apoptosis: -2; Calb FLC: -25

Results for Cc1ccc(OCC(=O)NN2C(=O)c3ccccc3C2=O)c(C)c1 ?
T cruzi inh: -6; Vif TR-FRET: -3%; RanGTP-Imp inh: inconclusive; Bfl-1 A1 inh: -0.1; LANA-H2B inh: -0.1; Beta apoptosis: -8; Calb FLC: 7

How did CCN(CC)S(=O)(=O)c1cc(NC(=O)C(C)OC(=O)c2[nH]c(C)c(C(C)=O)c2C)ccc1C (stereo not drawn) do in these assays?
AF4-AF9 inh: 8.1; T cruzi inh: 22; Vif TR-FRET: inconclusive; RanGTP-Imp inh: 0.7; Bfl-1 A1 inh: 0.2; LANA-H2B inh: -7.0; Beta apoptosis: 17; Calb FLC: 4

What do the screens show for `N#CNC(=Nc1cccc(Cl)c1)Oc1ccccc1`?
AF4-AF9 inh: 0.6; T cruzi inh: -6; Vif TR-FRET: 0%; RanGTP-Imp inh: 11; Bfl-1 A1 inh: 0.2; LANA-H2B inh: 0.8; Beta apoptosis: -1; Calb FLC: 10

Results for Cc1ccc(SCC(=O)N2c3ccccc3Sc3ccccc32)cc1 ?
T cruzi inh: 35; Vif TR-FRET: 2%; RanGTP-Imp inh: 3.6; Bfl-1 A1 inh: -0.7; LANA-H2B inh: 1.9; Beta apoptosis: 3; Calb FLC: 2

How did CCN(CC)CCCNC(=O)c1nn(-c2cccc(OC)c2)c(=O)c2ccccc12 do in these assays?
T cruzi inh: 15; Vif TR-FRET: -1%; RanGTP-Imp inh: 0.2; Bfl-1 A1 inh: 0.2; LANA-H2B inh: -1.3; Beta apoptosis: -16; Calb FLC: -20

What do the screens show for `CN(C(=O)CSc1cc(Cl)ccc1Cl)C1CCS(=O)(=O)C1` (stereo not drawn)?
AF4-AF9 inh: -2.4; Vif TR-FRET: 10%; Bfl-1 A1 inh: -0.7; LANA-H2B inh: -0.1; Beta apoptosis: 1

How did COC(=O)[C@H](CCSC)NC(=O)N1CCN(c2cccc(C(F)(F)F)c2)CC1 do in these assays?
T cruzi inh: 9; Vif TR-FRET: 2%; RanGTP-Imp inh: -0.2; Bfl-1 A1 inh: 0.7; LANA-H2B inh: 1.7; Beta apoptosis: -5; Calb FLC: -5

What do the screens show for `CN(C)S(=O)(=O)c1cccc(-c2nnc(-c3ccccc3)o2)c1`?
AF4-AF9 inh: 0.1; T cruzi inh: 4; Vif TR-FRET: 24%; RanGTP-Imp inh: -0.3; Bfl-1 A1 inh: 0.5; LANA-H2B inh: -0.2; Beta apoptosis: -2; Calb FLC: 3

How did O=S(=O)(Cc1cc(-c2ccccc2)no1)c1ccccc1 do in these assays?
AF4-AF9 inh: -3.0; T cruzi inh: 0; RanGTP-Imp inh: 1.8; Bfl-1 A1 inh: 1.1; LANA-H2B inh: 2.6; Beta apoptosis: -4; Calb FLC: -1

What do the screens show for `O=C(O)CSCC(=O)Nc1ccccn1`?
AF4-AF9 inh: 3.8; T cruzi inh: 3; Vif TR-FRET: -12%; RanGTP-Imp inh: -0.3; Bfl-1 A1 inh: 0.0; LANA-H2B inh: 0.2; Beta apoptosis: -3; Calb FLC: -9

What do the screens show for `Cc1ccccc1SCC(=O)Nc1ccc(N2CCOCC2)cc1`?
AF4-AF9 inh: -1.1; T cruzi inh: 4; Vif TR-FRET: -1%; RanGTP-Imp inh: 1.2; Bfl-1 A1 inh: -1.2; LANA-H2B inh: -1.6; Beta apoptosis: -13; Calb FLC: 3

Results for Cc1ccc(NC(=O)CN(C)C(=O)/C=C/c2cccc(F)c2)cc1 ?
AF4-AF9 inh: -0.5; T cruzi inh: -6; RanGTP-Imp inh: inconclusive; Bfl-1 A1 inh: 0.3; LANA-H2B inh: 2.1; Beta apoptosis: 0; Calb FLC: -1

How did CCn1c(-c2cccnc2Cl)nc2cc(Cl)c(Cl)cc21 do in these assays?
T cruzi inh: -5; Vif TR-FRET: 5%; RanGTP-Imp inh: 10; Bfl-1 A1 inh: 0.4; LANA-H2B inh: -2.2; Beta apoptosis: -2; Calb FLC: -5

What do the screens show for `COc1cccc(-c2noc(Cn3nc(C)c([N+](=O)[O-])c3C)n2)c1`?
T cruzi inh: 2; Vif TR-FRET: -4%; RanGTP-Imp inh: 4.8; Bfl-1 A1 inh: 0.6; LANA-H2B inh: 3.4; Beta apoptosis: -4; Calb FLC: 1

What do the screens show for `COc1ccc(C(NC(=O)/C=C/c2ccco2)c2ccc(OC)cc2)cc1`?
AF4-AF9 inh: 0.2; T cruzi inh: -2; RanGTP-Imp inh: -0.9; Bfl-1 A1 inh: 0.0; LANA-H2B inh: 2.1; Beta apoptosis: -5; Calb FLC: -3

How did COC(=O)c1ccc(/C=N\N2CCN(Cc3ccc(C)cc3)CC2)cc1 do in these assays?
AF4-AF9 inh: -50; T cruzi inh: -27; Vif TR-FRET: 6%; RanGTP-Imp inh: 0.6; Bfl-1 A1 inh: 0.0; LANA-H2B inh: -0.8; Beta apoptosis: -4; Calb FLC: 64

How did Cc1ccccc1NC(=O)Cc1nc(COC(=O)CCC(=O)c2ccccc2)cs1 do in these assays?
AF4-AF9 inh: inconclusive; Vif TR-FRET: -1%; Bfl-1 A1 inh: 1.0; LANA-H2B inh: 104*; Beta apoptosis: -1

What do the screens show for `O=C(COc1ccc(C(=O)c2ccc(F)cc2)cc1)NCc1ccc(F)cc1`?
AF4-AF9 inh: 2.3; T cruzi inh: -49; RanGTP-Imp inh: 7.6; Bfl-1 A1 inh: -0.4; LANA-H2B inh: 6.3; Beta apoptosis: 1; Calb FLC: 32

Results for CN(Cc1ccccc1)C(=O)COC(=O)C12CC3CC(CC(Br)(C3)C1)C2 ?
AF4-AF9 inh: -3.0; Vif TR-FRET: -2%; Bfl-1 A1 inh: -0.8; LANA-H2B inh: -3.0; Beta apoptosis: -3

Results for COc1ccc(CCNC(=O)CCN2C(=O)COc3ccccc32)cc1OC ?
AF4-AF9 inh: -35; T cruzi inh: -4; Vif TR-FRET: -6%; RanGTP-Imp inh: inconclusive; Bfl-1 A1 inh: 0.0; LANA-H2B inh: -5.2; Beta apoptosis: -4; Calb FLC: -8

What do the screens show for `Cc1ccc(NC(=O)CN2C(=O)S/C(=C\c3cccn3-c3cccc(C(=O)O)c3)C2=O)cc1C`?
AF4-AF9 inh: 1.6; T cruzi inh: 0; Vif TR-FRET: -1%; RanGTP-Imp inh: -1.6; Bfl-1 A1 inh: -0.1; LANA-H2B inh: 11; Beta apoptosis: 8; Calb FLC: -18

Results for O=C(Nc1ccc(CN2CCOCC2)cc1)c1ccc2ccccc2c1 ?
AF4-AF9 inh: -0.5; T cruzi inh: -1; Vif TR-FRET: 3%; RanGTP-Imp inh: 3.0; Bfl-1 A1 inh: -0.7; LANA-H2B inh: -2.3; Beta apoptosis: 2; Calb FLC: 2

What do the screens show for `COc1ccc(C(=O)COC(=O)CN2CC(=O)Oc3ccccc32)cc1Br`?
Vif TR-FRET: 19%; Bfl-1 A1 inh: 2.0; LANA-H2B inh: 2.7; Beta apoptosis: -21

How did O=C(CN1CCN(S(=O)(=O)c2ccc(F)c(Cl)c2)CC1)N1CCc2ccccc21 do in these assays?
AF4-AF9 inh: 2.1; Vif TR-FRET: 1%; Bfl-1 A1 inh: 1.1; LANA-H2B inh: 0.8; Beta apoptosis: -6

What do the screens show for `Cc1nonc1NC(=O)CSc1nc2cc(Cl)ccc2c2c1CCCC2`?
AF4-AF9 inh: 8.0; T cruzi inh: 0; Vif TR-FRET: inconclusive; RanGTP-Imp inh: 1.5; Bfl-1 A1 inh: 0.3; LANA-H2B inh: 1.0; Beta apoptosis: -1; Calb FLC: 9

What do the screens show for `C=C(C)CNC(=S)N/N=C/c1ccc(NC(C)=O)cc1`?
AF4-AF9 inh: -2.3; T cruzi inh: 0; Vif TR-FRET: -2%; RanGTP-Imp inh: 1.8; Bfl-1 A1 inh: -0.6; LANA-H2B inh: -1.3; Beta apoptosis: -4; Calb FLC: 11

What do the screens show for `CC(C)(C)NC(=O)C(c1ccc(Cl)cc1)N(CCO)C(=O)c1snc(C(N)=O)c1N` (stereo not drawn)?
AF4-AF9 inh: 0.9; T cruzi inh: 9; RanGTP-Imp inh: 4.3; Bfl-1 A1 inh: -0.4; LANA-H2B inh: 4.3; Beta apoptosis: -1; Calb FLC: -10
